Kir21 block: Kir2.1 (mouse) channel inhibition | P35561 | HEK293-Kir2.1, FluxOR thallium flux fluorescence; stronger effect = lower value | B-score at 10 µM | 0.85% of 310,000 active | AID 1672;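 active = fluorescence ratio B-score at or below minus 3 SD of library scores, with starting-brightness B-score within 2 SD, cut at about -4.2 in these data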;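 note: channel flux triggered by added potassium and thallium sulfate stimulus; B-score of peak minus minimum fluorescence over baseline after thallium stimulus; more negative B-score means stronger Kir2.1 block with less thallium influx; some compounds called inactive have numbers as strong as hits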
Target sequence (P35561 whole entry, looked up): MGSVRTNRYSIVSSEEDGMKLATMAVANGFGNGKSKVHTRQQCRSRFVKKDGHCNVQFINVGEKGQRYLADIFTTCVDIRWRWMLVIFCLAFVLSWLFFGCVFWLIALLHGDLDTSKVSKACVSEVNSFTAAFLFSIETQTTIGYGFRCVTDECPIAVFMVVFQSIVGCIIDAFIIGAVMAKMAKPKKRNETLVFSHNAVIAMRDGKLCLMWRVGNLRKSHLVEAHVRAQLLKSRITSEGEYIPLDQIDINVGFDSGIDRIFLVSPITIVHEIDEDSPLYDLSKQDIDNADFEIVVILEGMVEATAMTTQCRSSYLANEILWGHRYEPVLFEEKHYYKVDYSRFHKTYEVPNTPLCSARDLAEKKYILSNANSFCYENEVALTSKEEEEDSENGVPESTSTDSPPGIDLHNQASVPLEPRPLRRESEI
CHT inh: inhibitors of human choline transporter CHT | B-score at 10 µM | CHT-expressing cells, membrane potential dye, choline response; stronger effect = lower value | AID 488975 | Q9GZV3 | 0.86% of 310,000 active;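 active = B-score over 3 SD under the library average, and starting fluorescence ratio not unusually high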;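 note: choline stimulus applied at its EC90 after an EC20 pre-addition; B-score computed on integrated fluorescence ratio after choline addition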
* marks the source's active call; other numbers are inactive results; i = inactive.

item	Compound	CHT inh	Kir21 block
1	COCCN(C(=O)COC(=O)c1sccc1C)c1c(N)n(Cc2ccccc2)c(=O)[nH]c1=O	i	-0.82
2	CC(C)C(NC(=O)c1c(F)cccc1F)C(=O)NCC(c1ccccc1)N(C)C (centres undefined)	i	-1
3	CNC(=O)/C=C1\NC(C)(C)Cc2ccccc21	i	-1
4	COc1ccccc1CCC(=O)N1CCN(S(=O)(=O)c2cccc(F)c2)CC1	i	-2.1
5	Cc1ccc(NC(=O)C2CCCN(S(=O)(=O)c3ccc4c(c3)oc(=O)n4C)C2)nc1 (centres undefined)	i	0.11
6	Fc1ccc(N/N=C2/CCSc3sccc32)c(F)c1	i	-0.64
7	CN1CCN(c2ccc(NC(=S)NC(=O)/C=C/c3ccco3)cc2)CC1	i	0.4
8	O=S(=O)(c1cccc(COc2ccc(Cl)cc2Cl)c1)N1CCOCC1	i	-1.1
9	CC1CCc2c(sc(NC(=O)Cn3nc(C(=O)O)c4ccccc4c3=O)c2C#N)C1 (centres undefined)	i	-0.12
10	Cc1noc(C)c1COc1ccc(C(=O)OCC(N)=O)cc1	i	-1.2
11	COC(=O)c1cc(-c2cc(OC)ccc2OC)nc2c1c(=O)n(C)c(=O)n2Cc1ccccc1	i	0.78
12	COc1ccccc1/C=C/C(=O)NCC(=O)N/N=C/c1ccc(C)o1	i	1.4

Next part.
item	Compound	CHT inh	Kir21 block
13	O=C(Nc1ccc(Cl)cc1)Nc1ccc(Oc2cccnc2)nc1	i	-0.07
14	CC(C)=C1C2CCC1C1C(=O)N(c3nccs3)C(=O)C21 (centres undefined)	i	0.16
15	Clc1ccccc1Cn1nnc2c(N3CCOCC3)nc(C3CC3)nc21	i	-1.1
16	Cc1cc(C)n(C(=O)COc2ccccc2C)n1	i	1.2
17	C/C(=N/NC(=O)c1cc(-c2ccc(Cl)s2)[nH]n1)c1ccco1	i	-0.88
18	CC(=O)CC(=O)Nc1ncc(C(F)(F)F)cc1Cl	i	-1
19	OCCn1c(CSc2nc3ccccc3n2CCO)nc2ccccc21	i	0.5
20	COc1ccc(NCc2n[nH]c(=O)c3ccccc23)cc1	i	1.4
21	NC(=O)COC(=O)CC(c1ccccc1)c1ccccc1	i	-0.51
22	COc1cccc(N2CCN(S(=O)(=O)c3ccc(CN4C(=O)c5cccnc5C4=O)cc3)CC2)c1	i	1.8
23	Cc1ccccc1Cn1ccc(NC(=O)c2nn(C)cc2[N+](=O)[O-])n1	i	1.1
24	COc1ccc(CN2C(=O)CCC2(C)C(=O)NCc2cccnc2)c(OC)c1 (centres undefined)	i	1.1

New compounds follow:
item	Compound	CHT inh	Kir21 block
25	CCOc1ccc(C(=O)/C=C/Nc2ccc(S(=O)(=O)Nc3onc(C)c3C)cc2)cc1	i	0.28
26	COc1ccc(NC(=O)C(C)N2c3cccc4cccc(c34)S2(=O)=O)c(OC)c1 (centres undefined)	i	2.1
27	COC(=O)CS(=O)(=O)c1cccc2cccnc12	i	0.15
28	Cc1ccc(-n2c(N)c(C#N)c(-c3ccc(Cl)cc3)c(C#N)c2=O)cc1	i	-2.3
29	COC(=O)c1sc(NC(=O)c2ccco2)c(C#N)c1C	i	-0.22
30	COc1ccc(C2CC(c3cccs3)=NN2C(=O)CSc2nnnn2C)cc1OC (centres undefined)	i	-2.2
31	Cc1nc2c(C#N)cnn2c2c1CCN2CC1CCCO1 (centres undefined)	i	0.2
32	Cc1cc(-c2cc(-c3ccc(Cl)cc3)on2)nc(NC2CCCC2)n1	i	0
33	COC(=O)CN(c1ccccc1[N+](=O)[O-])S(=O)(=O)c1ccccc1	i	-0.23
34	Cc1nc(-c2ccc(S(=O)(=O)Nc3cc(F)ccc3F)cc2)co1	i	-1.7
35	CC(=O)Nc1ccc(Nc2nc(C)c([N+](=O)[O-])c(Nc3ccccc3)n2)cc1	i	-0.21
36	COC(=O)c1ccc(NC(=O)CSCc2ccc(C)cc2)cc1	i	-2.6
37	COc1cc2ccccc2cc1C(=O)Nc1cccnc1	i	2.6
38	Cc1ccc2nc(SC(C)C(=O)NCc3ccc4c(c3)OCO4)[nH]c2c1 (centres undefined)	i	-1
39	Cc1ccc(C(=O)NC2CCN(C(=O)Nc3ccc(F)cc3)CC2)cc1	i	0.44

Part of the list above in order of count of non-hydrogen atoms, highest first:
item	Compound	CHT inh	Kir21 block
22	COc1cccc(N2CCN(S(=O)(=O)c3ccc(CN4C(=O)c5cccnc5C4=O)cc3)CC2)c1	i	1.8
25	CCOc1ccc(C(=O)/C=C/Nc2ccc(S(=O)(=O)Nc3onc(C)c3C)cc2)cc1	i	0.28
30	COc1ccc(C2CC(c3cccs3)=NN2C(=O)CSc2nnnn2C)cc1OC (centres undefined)	i	-2.2
26	COc1ccc(NC(=O)C(C)N2c3cccc4cccc(c34)S2(=O)=O)c(OC)c1 (centres undefined)	i	2.1
24	COc1ccc(CN2C(=O)CCC2(C)C(=O)NCc2cccnc2)c(OC)c1 (centres undefined)	i	1.1
38	Cc1ccc2nc(SC(C)C(=O)NCc3ccc4c(c3)OCO4)[nH]c2c1 (centres undefined)	i	-1
32	Cc1cc(-c2cc(-c3ccc(Cl)cc3)on2)nc(NC2CCCC2)n1	i	0
33	COC(=O)CN(c1ccccc1[N+](=O)[O-])S(=O)(=O)c1ccccc1	i	-0.23
36	COC(=O)c1ccc(NC(=O)CSCc2ccc(C)cc2)cc1	i	-2.6
31	Cc1nc2c(C#N)cnn2c2c1CCN2CC1CCCO1 (centres undefined)	i	0.2
29	COC(=O)c1sc(NC(=O)c2ccco2)c(C#N)c1C	i	-0.22
27	COC(=O)CS(=O)(=O)c1cccc2cccnc12	i	0.15

High-throughput results: PubChem BioAssay, Johns Hopkins Ion Channel Center

Only part of the results is shown, and most or all hits are left out here.
